CtBP-E1A inh – inhibitors of CtBP/E1A interaction | activity change, % (test concentration not listed) | AlphaScreen GST-E1A/His-CtBP binding, 1536-well; hits give low values; control for the full effect not named in the record | AID 651724 | 340,000 tested, 0.49% active; in the data active means activity change below about -65%; inconclusive means about -30% to -65%; inactive means above about -30%; further: on the % scale 0 is the no-effect control and ±100 the full control effect; compound concentration not given in the record
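In 5 uL wells, 23 nL compound meets equimolar GST-E1A and His-CtBP (5X stock 125 nM each) for 2 h, 37 °C. Beads (5X, 50 ug/mL) then 1 h, 37 °C, dark.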
TRPML1 inh – human mucolipin-1 channel inhibition. Q9GZU1. 390,000 tested, 0.02% active. activity change, negative = inhibition, % (concentration not given with the values). TRPML1-inducible cells, Ca2+ dye fluorescence, FDSS; hits give low values; inhibition of EC80 agonist-evoked calcium signal; in the data active means activity change below about -50%; inconclusive means about -30% to -50%; inactive means above about -30%;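 further: stimulus is agonist 54-4 at its EC80 concentration; on the % scale 0 is the no-effect control and ±100 the full control effect; compound concentration not given in the record; the text of the record puts the active cut at -80%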
Target sequence (Q9GZU1 whole entry, looked up): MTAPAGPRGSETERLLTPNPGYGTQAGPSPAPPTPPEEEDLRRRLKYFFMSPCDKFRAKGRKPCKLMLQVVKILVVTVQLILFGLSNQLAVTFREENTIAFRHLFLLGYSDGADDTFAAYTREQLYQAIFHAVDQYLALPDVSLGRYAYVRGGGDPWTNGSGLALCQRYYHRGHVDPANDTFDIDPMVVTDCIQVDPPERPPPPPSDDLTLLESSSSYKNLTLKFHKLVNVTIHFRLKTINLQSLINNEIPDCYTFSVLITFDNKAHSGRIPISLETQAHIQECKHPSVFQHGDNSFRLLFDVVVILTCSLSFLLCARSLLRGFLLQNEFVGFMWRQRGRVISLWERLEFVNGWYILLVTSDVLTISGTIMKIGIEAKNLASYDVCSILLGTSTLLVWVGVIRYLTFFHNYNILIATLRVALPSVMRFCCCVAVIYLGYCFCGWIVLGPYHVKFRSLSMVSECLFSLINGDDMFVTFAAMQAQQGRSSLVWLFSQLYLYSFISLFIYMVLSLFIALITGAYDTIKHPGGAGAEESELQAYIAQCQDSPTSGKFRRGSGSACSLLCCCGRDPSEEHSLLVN
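TRPML1-DL cells, Tet-induced overnight (~16 h, 37 °C) at 1,500 cells/well, were loaded with Ca8 no-wash dye plus quencher for 45-90 min at room temperature. Compounds were pinned during FDSS kinetic reading; agonist 54-4 at EC80 (4 uM final) then added.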
TRPML1 ag – activates the human TRPML1 channel; TRPML1-expressing cells, Ca2+ dye fluorescence, FDSS; host cell line not named in the record; reference of the full effect not given here; 410,000 tested, 0.12% active; activation, % (concentration not given with the values); Q9GZU1; in the data active = activation above about 50%; inconclusive = about 30% to 50%; inactive = below about 30%; further: 0% is about no effect; the text of the record puts the active cut at 80%
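Calcium fluorescence on an FDSS kinetic reader gave the read-out. Tet-induced TRPML1-DL cells were plated overnight, dye-loaded (Ca8 with quencher, 45-90 min, room temperature, dark), then read 110 s after compound addition, and again 110 s after 4uM final 54-4 (EC80).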
Six1-Eya2 blk – inhibitors of human Six1/Eya2 interaction | Q15475+O00167 | AlphaScreen GST-Six1/His-Eya2 binding, biochemical; hits give low values; control for the full effect not named in the record | activity change, % (no concentration beside the values) | 360,000 tested, 0.56% active | AID 651725; in the data active = activity change below about -65%; inconclusive = about -30% to -65%; inactive = above about -30%; further: on the % scale 0 is the no-effect control and ±100 the full control effect; compound concentration not given in the record
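AlphaScreen with GST-Six1 and His-Eya2 (5X mix: 250 nM and 500 nM), glutathione donor and nickel acceptor beads; buffer 50 mM Tris pH 8.0, 300 mM NaCl, 1 mM TCEP; 1 h at 37 C in the dark.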
D2 PAM – potentiates the human D2 dopamine receptor allosterically. P14416. DiscoveRx D2 beta-arrestin cells, luminescence, 90 min; 100% = 57 uM dopamine signal. potentiation, % (concentration not given with the values). 360,000 tested, 0.23% active. AID 624464; active = potentiation of 50% or more; inconclusive = 30% to 50%; inactive = 30% or less;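 further: compound concentration not given in the record; tested on top of an EC20 dose of dopamine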
Target sequence (P14416 whole entry, looked up): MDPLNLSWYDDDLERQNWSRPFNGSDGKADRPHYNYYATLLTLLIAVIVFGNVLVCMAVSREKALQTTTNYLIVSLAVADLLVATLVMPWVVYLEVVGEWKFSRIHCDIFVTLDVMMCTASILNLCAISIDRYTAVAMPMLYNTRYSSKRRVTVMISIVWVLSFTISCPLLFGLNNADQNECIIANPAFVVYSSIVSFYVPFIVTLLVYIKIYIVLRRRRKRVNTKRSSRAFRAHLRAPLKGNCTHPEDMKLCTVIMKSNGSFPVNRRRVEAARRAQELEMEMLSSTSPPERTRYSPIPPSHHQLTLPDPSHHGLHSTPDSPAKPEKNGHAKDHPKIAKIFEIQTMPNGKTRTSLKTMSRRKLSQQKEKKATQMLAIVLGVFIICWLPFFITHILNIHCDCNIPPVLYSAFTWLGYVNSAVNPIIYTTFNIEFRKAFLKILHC
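PathHunter D2 cells, attached overnight at 37 deg C, received compound in DMSO plus dopamine at EC20 (50 nM final) for 90 min at 37 deg C. Beta-arrestin recruitment was read as luminescence after 1 h with detection reagent at ambient temperature.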
TRPV1 potentiator – human TRPV1 potentiation. 320,000 tested, 0.02% active. potentiation, % at 8.33 µM. AID 540277. TRPV1-expressing cells, Fluo-8 calcium influx, capsaicin EC20 potentiation; host cell line not named in the record; control for the full effect not named in the record; active means potentiation above 80%; inconclusive means 30% to 80%; inactive means below 30%; further: 0% is about no effect
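Cells expressing TRPV1 were dye-loaded with Fluo-8 and read kinetically: 10 s baseline, 3 min after compound (agonist portion), then 2 min after EC20 capsaicin (allosteric enhancer portion). Calcium-bound dye fluorescence at 480/520 nm.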
* marks the source's active call; other numbers are inactive results; ? = inconclusive; . = not tested or not shown; & = joins results of further samples. This is a random part of the collection; any-hit rate near 0.95%.

SMILES	CtBP-E1A inh	TRPML1 inh	TRPML1 ag	Six1-Eya2 blk	D2 PAM	TRPV1 potentiator
O=C(Cc1ccccc1)NCC(=O)OCC(=O)c1ccc(OC(=O)c2ccccc2)cc1	-6	3	-0.3	-3	7	3
COc1cc(C)c(S(=O)(=O)N2CCCC2)cc1C(C)C	15	-11	0.6	9	-1	3
Cc1cccnc1NC(=O)C1c2ccccc2Oc2ccccc21	19	-5	-0.5	6	-7	-4
O=C1OCc2ccc(NC(=O)C3CC3)cc21	-20	-27	0.3	7	-3	-6
NS(=O)(=O)c1ccc(N2CCCC2=O)c([N+](=O)[O-])c1	11	-9	0.0	2	-3	9
CCOC(=O)N1CCC(NS(=O)(=O)c2cc3c(cc2C)NC(=O)CO3)CC1	0	-8	0.6	7	5	6
Cc1cc(C)cc(N(CC(=O)NC2CCC(C)CC2)S(=O)(=O)c2c(C)[nH]c(=O)[nH]c2=O)c1 (centres undefined)	0	-8	-0.9	1	-8	-3
CC1(C)CC(=O)C(C=Nc2ccc3c(c2)OCO3)=C(O)C1	0	12	-0.1	-12	-7	3
COc1ccccc1N1CCN(Cc2ccc(-c3ccccc3[N+](=O)[O-])o2)CC1	.	.	.	-2	-77	-4
O=C(/C=C/c1ccc(F)cc1)NC(Cc1c[nH]c2ccccc12)C(=O)O (centres undefined)	13	3	-0.7	-6	4	3
COC(=O)c1c(NC(=O)/C=C/C(=O)O)sc(C)c1-c1ccc(C)cc1	0	-5	-0.8	10	5	8
COC(=O)c1ccc(-c2ccc(/C=N/N3C(=O)C4C5C=CC(CC5)C4C3=O)o2)cc1 (centres undefined)	-8	7	2.6	6	-6	5
COc1ccc(CNc2nccn3ccnc23)cc1	-18	.	-0.5	-10	-6	.
CC(C)Oc1ccc(C(=O)NC(Cc2c[nH]c3ccccc23)C(=O)NN)cc1 (centres undefined)	.	-10	-0.9	-3	-19	7
Cc1cc(C)n2nc(C(=O)OCC(=O)Nc3ccc4c(c3)OCO4)nc2n1	-7	4	-0.1	-7	-8	-10
CCN(CC)S(=O)(=O)c1ccc(Cl)c(NC(=O)COc2ccccc2[N+](=O)[O-])c1	-8	5	0.3	-6	-2	9
COc1ccccc1N(CC(=O)N/N=C/c1ccc(OCC(=O)NCc2ccco2)cc1)S(=O)(=O)c1ccc(C)cc1	8	-13	0.7	-9	-4	5
CC1CCN(S(=O)(=O)c2ccc3nc(N4CCN(c5ccccc5)CC4)ccc3c2)CC1	.	-19&-14	0.2&2.7	0	-4	1
CCn1c(=O)c2sccc2n2c(CCCC(=O)N3CCN(c4ccccn4)CC3)nnc12	?	25	0.8	-12	0	4
COc1ccccc1-c1ccc(/C=C2/C=C(C)OC2=O)o1	-7	19	2.0	-1	-10	5
COc1cccc(Cn2c(-c3cccs3)noc2=O)c1	-7	?	0.0	5	-2	1
S=C(c1c[nH]c2ccc(Br)cc12)N1CCOCC1	-17	13	0.1	-7	-4	-16
Cn1c(/N=C/c2c[nH]c3ccccc23)nc2ccccc21	6	-2	-0.8	0	-5	26
O=C(c1ccc(=O)oc1)N1CCC(C(O)(c2ccccc2)c2ccccc2)CC1	0	42	0.8	1	-6	?

6 records drawn at random from the list so far, as already listed:
SMILES	CtBP-E1A inh	TRPML1 inh	TRPML1 ag	Six1-Eya2 blk	D2 PAM	TRPV1 potentiator
CC(C)Oc1ccc(C(=O)NC(Cc2c[nH]c3ccccc23)C(=O)NN)cc1 (centres undefined)	.	-10	-0.9	-3	-19	7
COc1ccc(CNc2nccn3ccnc23)cc1	-18	.	-0.5	-10	-6	.
CC1CCN(S(=O)(=O)c2ccc3nc(N4CCN(c5ccccc5)CC4)ccc3c2)CC1	.	-19&-14	0.2&2.7	0	-4	1
COc1ccccc1N(CC(=O)N/N=C/c1ccc(OCC(=O)NCc2ccco2)cc1)S(=O)(=O)c1ccc(C)cc1	8	-13	0.7	-9	-4	5
O=C(c1ccc(=O)oc1)N1CCC(C(O)(c2ccccc2)c2ccccc2)CC1	0	42	0.8	1	-6	?
Cc1cc(C)n2nc(C(=O)OCC(=O)Nc3ccc4c(c3)OCO4)nc2n1	-7	4	-0.1	-7	-8	-10

More compounds follow:
SMILES	CtBP-E1A inh	TRPML1 inh	TRPML1 ag	Six1-Eya2 blk	D2 PAM	TRPV1 potentiator
O=C(COC(=O)c1cccc(F)c1)NCCC1=CCCCC1	7	3	-0.6	-1	-6	.
COc1ccccc1NC(=O)N(c1c(N)n(Cc2ccccc2)c(=O)[nH]c1=O)C1CCCC1	-2	13	0.4	4	0	-4
Cc1cccc(N/C(N)=N/c2nc3c(c(=O)[nH]2)CCCC3)c1	0	-8	-0.8	-1	2	-7
O=C(CSc1nnc(NC(=O)Cc2ccccc2)s1)NCc1ccco1	5	-16	-0.7	2	4	21
Cc1ccc(-n2cc(-c3ccccc3)[nH]c2=O)cc1F	8	3	-0.6	0	-5	-11
Nc1c(S(=O)(=O)c2cccs2)c2nc3ccccc3nc2n1CC1CCCO1 (centres undefined)	7	-1	0.6	-3	-6	3
Cc1ccc(C)c(-n2nnnc2SCC(=O)Nc2cccc(-c3nnc4n3CCCCC4)c2)c1	-12	14	3.0	-3	-15	2
Cc1onc(-c2ccccc2)c1C(=O)Nc1sc2c(c1C#N)CCC2	-24	0	2.0	-26	-5	-4
NC(Cc1ccc(C(F)(F)F)cc1)c1csc(Nc2ccc(S(N)(=O)=O)cc2)n1 (centres undefined)	-4	.	-0.2	-6	-2	.
Cn1c(N)c(C(=O)COC(=O)Cc2cccs2)c(=O)n(C)c1=O	3	-11	-0.5	-1	-5	.
COc1ccc(NC(=O)/C=N/O)cc1	-8	41	0.7	-5	6	2
CCCCn1c(=O)c2ccccc2c2ccccc2c1=O	21	4	1.1	23	-4	-8
CCC(=O)Nc1cccc(C2=NOC3(C2)C[C@@H](C(N)=O)N(C(=O)C(c2ccccc2)c2ccccc2)C3)c1 (some centres undefined)	3	-1	-0.8	1	-9	-18
CC(OC(=O)CSc1ccc([N+](=O)[O-])cc1)C(=O)NCc1ccccc1 (centres undefined)	0	-14	0.9	10	2	8
C[C@@H]1CCCCO[C@@H](CN(C)S(=O)(=O)c2cccs2)[C@@H](C)CN([C@H](C)CO)C(=O)c2cc(NS(=O)(=O)c3ccccc3)ccc2O1	?	-2	1.9	-26	-16	.
N#Cc1ccccc1OCC(=O)NC(=O)NC1CCS(=O)(=O)C1 (centres undefined)	13	-4	-0.2	1	0	2
Cc1ccc(NC(=O)CCn2c(=O)[nH]c3ccsc3c2=O)cc1C	0	-8	1.9	0	-1	11
CC(C)(C)S(=O)(=O)c1cnc(-c2ccc(Cl)cc2)nc1N	.	-17	74*	5	-15	.
C[C@H](CO)N1C[C@H](C)[C@@H](CN(C)C(=O)c2ccccc2)OCc2cn(nn2)CCCC1=O	2	-21	-0.5	1	3	.
Cc1[nH]c2ccccc2c1CC(=O)O	-2	23	3.5	0	1	3
CC(=O)Nc1ccccc1OCC(=O)NC1CCCCC1C (centres undefined)	3	2	0.3	4	0	-4
COc1ccc(OC)c(-n2c(Cn3c(-c4ccccn4)nc4ccccc43)n[nH]c2=S)c1	.	-13	0.5	7	-5	9
COC(=O)c1ccc(C(=O)OC)c(NS(C)(=O)=O)c1	3	-7	0.2	5	-11	0
O=C(/C=C/c1cccnc1)c1ccc(O)cc1	4	-2	-0.3	43	1	-8
Cc1cc(C)c(S(=O)(=O)c2ccc(Cl)cc2)c(=O)[nH]1	20	11	-0.3	10	-5	3
O=C(CSc1nnc(Cc2cccs2)n1CCc1ccccc1)N1CCCc2ccccc21	-6	12	1.5	-1	-8	3
CCS(=O)(=O)N1CCN(Cc2ccc([N+](=O)[O-])cc2)CC1	3	-9	0.5	18	-5	9
CCOC(=O)c1c(C)[nH]c(/C(C)=N/O)c1C	-7	-2	-0.1	-15	-3	6
Nc1cccc(C(=O)Nc2ccc3nc(-c4cccnc4)[nH]c3c2)c1	?	11	-0.7	?	10	-4
COCCn1c(=O)[nH]c2cc(C(=O)NC(C)C)ccc2c1=O	22	-16	-0.3	22	2	13
O=C1c2ccccc2NC2CCCCCN12 (centres undefined)	7	18	0.1	8	-16	-17
O=C(O)C(CCc1ccccc1)N1C(=O)c2ccccc2C1=O (centres undefined)	-2	14	-0.4	3	-11	.
Cc1cc(C)n(CC(O)Cn2ccc3ccccc32)n1 (centres undefined)	1	3	0.6	2	0	8
N#Cc1cccc(NC(=O)CSc2ccccc2)c1	-17	-17	0.1	0	-15	-18
CCCC(C(=O)NC1CCCC1)N(Cc1ccc(OC)cc1)C(=O)c1snc(C(N)=O)c1N (centres undefined)	0	5	1.4	2	-6	2
COc1cc(C(=O)NCCNc2nc3c(C)c(C)ccc3cc2C#N)cc(OC)c1OC	-12	23	0.5	7	-4	4
CC1CCCN(C(=O)C2CCN(CC(C)c3ccccc3)CC2)C1 (centres undefined)	1	3	-0.5	9	-19	25
COC(=O)c1cccc(NC(=O)CSc2nnc(C)n2Cc2ccccc2)c1	4	6	3.3	2	-27	6
COc1cccc(Nc2nc(CC(C)=O)ns2)c1	1	-8	0.1	4	10	5
CCN(CC)CCCN1C(=O)C(=O)/C(=C(/O)c2ccc(OC)cc2)C1c1ccco1 (centres undefined)	2	-10	0.6	0	1	.
CCOC(=O)c1ccc(NC(=O)c2ccc(CN3CCc4ccccc4C3)cc2)cc1	-2	-16	1.3	-5	-34	2
CC(C)n1cc(/C=N/NC(=O)COc2cccc3cccnc23)c2ccccc21	-2	-1	0.0	-16	6	9
COc1ccc(C)cc1S(=O)(=O)Nc1ccc2c(c1)OCCO2	0	2	0.5	-2	-2	-29
C=CCn1c(SCc2nc3sc(C(=O)O)c(C)c3c(=O)[nH]2)nnc1-c1ccc(C(C)(C)C)cc1	-3	-4	0.6	-25	-5	16
COCCCNC(NC(=O)c1ccc(Br)cc1)C(Cl)(Cl)Cl (centres undefined)	1	20	-0.9	2	1	-2
O=C(c1ccccc1)c1ccccc1N1C(=O)C=CC1=O	-20	-7	0.3	-13	-28	-3
COc1ccc(Cc2nnc(N/N=C/c3ccc(C)o3)[nH]c2=O)cc1	?	16	-0.3	?	-14	13
CC(OC(=O)Cc1c(F)cccc1Cl)C(=O)NCCC1=CCCCC1 (centres undefined)	10	-1	2.4	16	-13	0
Cc1cc(Cc2ccc(N)c(C)c2)ccc1N	-10	-8	-0.7	-9	2	27
COC(=O)c1cccc(NS(C)(=O)=O)c1	3	-61*	0.5	9	3	4
CN(c1ccc(C(=O)NCCSC(C)(C)C)cc1)S(C)(=O)=O	-11	-6	-0.1	8	-1	-18
Cc1cc(C)n(C2CC(=O)N(c3ccc(Cl)c(Cl)c3)C2=O)n1 (centres undefined)	5	-8	0.4	6	1	.
COc1cc(CNC(=O)c2cc(C(=O)NCc3cc(OC)cc(OC)c3)n(C)n2)cc(OC)c1	-5	5	0.1	-16	-10	-7
Cn1c(N=Cc2ccc([N+](=O)[O-])cc2)c(N)c(=O)n(C)c1=O	0	-17	0.9	1	-10	.
